Screening data from PubChem BioAssay.
ClpP mod: qHTS Assay for Activators of ClpP. AID 651965, 2013. Potency, µM (doses to about 57.5 µM), for the others: at the top dose activity change, negative = active. ATP-dependent Clp protease proteolytic subunit (Bacillus subtilis (strain 168)), P80244. 1.9% of 340,000 active. purified B. subtilis ClpP, FRET peptide cleavage, 20 min; active = well fitted falling curve with a large enough effect; inconclusive = small, poorly fitted or top-dose-only effect; inactive = no such curve, though single readings can be large or run the other way; also: potency is read from the fitted curve at half-maximal effect; the source files actives as falling curves though it sought activators and does not explain the sign; nearly all actives have a fitted effect of over 65% in size; many hits overshoot -100%
Target sequence (P80244 whole entry, looked up): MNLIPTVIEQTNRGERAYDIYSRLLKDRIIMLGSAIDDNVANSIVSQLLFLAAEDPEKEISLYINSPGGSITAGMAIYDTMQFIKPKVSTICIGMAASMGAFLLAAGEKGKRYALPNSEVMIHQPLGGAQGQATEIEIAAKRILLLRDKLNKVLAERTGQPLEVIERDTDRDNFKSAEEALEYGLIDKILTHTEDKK
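FRET quenching reversal measured ClpP activation: 10 microg/mL B. subtilis ClpP at pH 8 with the FRET-FV decapeptide, read at 430 nm after 320 nm excitation. The 20-min minus 0-min signal was scaled between DMSO/no-enzyme wells and ADEP (5.8 microM final).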
gsp antagonist: antagonists of gsp mutant (McCune-Albright syndrome); 0.4% of 340,000 active; gsp-mutant cells, cAMP HTRF, 30 min; control for the full effect not named in the record; Potency, µM (series often up to 76.9 µM), inactives show at the top dose activity change, negative = inhibition, most hits filed as inhibitors; active = falling curve of any shape with a large fitted effect; inconclusive = falling curve, mostly with a smaller effect; inactive = flat or rising curve; cell line not stated here;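 also: intracellular cAMP measured with PDE inhibitor Ro 20-1724 present during compound exposure; potency is read from the fitted curve at half-maximal effect; % is scaled to controls: 0 for no effect and ±100 for the full control effect; nearly all actives have a fitted effect of over 65% in size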
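HTRF cAMP measurement after 30 min RT detection following 30 min, 37C compound treatment alongside […] (added as 300 uM solution) in G418-selected cells seeded at 2000/well and grown 16–24 h.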
TRPML1 blocker: blocks the human TRPML1 channel | activity change, negative = inhibition, % (test concentration not listed) | Q9GZU1 | TRPML1-inducible cells, Ca2+ dye fluorescence, FDSS; hits give low values; inhibition of EC80 agonist-evoked calcium signal | 0.02% of 390,000 active | AID 624415; in the data active means activity change below about -50%; inconclusive means about -30% to -50%; inactive means above about -30%;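 also: stimulus is agonist 54-4 at its EC80 concentration; % is scaled to controls: 0 for no effect and ±100 for the full control effect; compound concentration not given in the record; the text of the record puts the active cut at -80%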
Target sequence (Q9GZU1 whole entry, looked up): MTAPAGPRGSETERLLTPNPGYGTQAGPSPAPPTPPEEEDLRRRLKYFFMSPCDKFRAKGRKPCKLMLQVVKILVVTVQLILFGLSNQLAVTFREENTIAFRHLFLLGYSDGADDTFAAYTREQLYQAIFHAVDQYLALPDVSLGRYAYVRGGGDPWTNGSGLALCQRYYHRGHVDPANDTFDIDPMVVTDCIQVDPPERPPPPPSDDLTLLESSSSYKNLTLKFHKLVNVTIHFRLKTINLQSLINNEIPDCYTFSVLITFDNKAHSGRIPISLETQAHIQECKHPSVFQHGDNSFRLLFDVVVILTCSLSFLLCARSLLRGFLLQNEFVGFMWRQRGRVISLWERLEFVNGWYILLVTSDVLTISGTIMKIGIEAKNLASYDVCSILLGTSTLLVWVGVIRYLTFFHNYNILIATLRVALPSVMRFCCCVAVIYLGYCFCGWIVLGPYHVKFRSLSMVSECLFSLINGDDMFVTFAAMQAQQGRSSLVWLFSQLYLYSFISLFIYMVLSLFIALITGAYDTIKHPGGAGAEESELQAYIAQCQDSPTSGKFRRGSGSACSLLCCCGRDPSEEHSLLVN
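Tet-induced TRPML1-DL cells loaded with Ca8 no-wash calcium dye were read kinetically on FDSS. Compound addition was followed by EC80 agonist 54-4 (4 uM final); inhibition was read over 110 s.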
* marks the source's active call; other numbers are inactive results; ? = inconclusive; nt = no result given. An excerpt; rates above refer to the full screens.

1. CC1C(=O)OC2CCN3CC=C(COC(=O)C(C)(O)C1(C)O)C23 (centres undefined)
2. c1ccc2c(c1)[nH]c1ccccc12
3. CNCC(=O)c1ccccc1
4. C/C=C1\CN2[C@H]3C[C@@]45c6ccccc6N(C)[C@H]4[C@@H]2CC1C3[C@H]5O (some centres undefined)
5. NC(Cc1ccccc1)c1csc(Nc2ccccn2)n1 (centres undefined)
6. Cc1ccc(-n2c(/C=C/c3cccc4ccccc34)nc3ccccc3c2=O)cc1
Screen / compound no.	1	2	3	4	5	6
ClpP mod	1.4%	?	2.5%	-3.0%	-4.6%	-1.8%
gsp antagonist	14.9%	7.3%	2.1%	1.2%	nt	nt
TRPML1 blocker	nt	nt	nt	nt	-5.7	55.5

7. Cc1cccc(Cn2cccc(C(=O)Nc3cc(C)on3)c2=O)c1
8. CCCc1ccc(OCC(=O)Nc2ccc(Cl)cc2C(=O)c2ccccc2)cc1
9. COc1ccc(-c2nc(CN3C(=O)CN=C(c4ccccc4Cl)c4cc(Cl)ccc43)c(C)o2)cc1OC
10. O=C(Nc1ccc2nc(SCC(=O)N3CCCc4ccccc43)sc2c1)c1cccc(F)c1
11. CCOc1ccc(CN(CCc2ccc3c(c2)OCO3)Cc2cccc(C)c2)cc1
12. COc1ccc(Cl)cc1NC(=O)C1CCN(c2nnc(C)c3c(C)n(-c4ccccc4)nc23)CC1
Screen / compound no.	7	8	9	10	11	12
ClpP mod	3.4%	1.4%	-14.7%	12.6µM*	-4.2%	28.2µM*
gsp antagonist	nt	nt	nt	nt	nt	nt
TRPML1 blocker	13.0	-1.0	-2.1	-10.9	-21.0	4.6

13. Cc1cccc(CN2CC=C(c3noc(CCC(=O)Nc4ccc(C)c(F)c4)n3)CC2)c1
14. CCCC1=Nc2cc(C(=O)NCCCN(CC)CC)ccc2Sc2ccccc21
15. CCOc1ccc2nc(NC(=O)c3cccn(Cc4ccccc4C)c3=O)sc2c1
16. CCc1nc(SC)ncc1C(=O)Nc1ccc(Cl)cc1C(=O)c1ccccc1
17. CCCc1nc(SC)ncc1C(=O)Nc1ccc(Cl)cc1C(=O)c1ccccc1
18. COc1cccc(-n2c(/C=C/c3cccc(C)c3)nc3ccccc3c2=O)c1
Screen / compound no.	13	14	15	16	17	18
ClpP mod	-0.8%	3.3%	-2.4%	-0.1%	-1.7%	-5.9%
gsp antagonist	nt	nt	nt	nt	nt	nt
TRPML1 blocker	4.5	-12.9	-11.5	29.8	-4.0	-20.9

19. NC(Cc1ccc(Cl)cc1)c1csc(Nc2cnccn2)n1 (centres undefined)
20. CC(=O)c1ccc(N2CCN(c3ccc4cc(S(=O)(=O)N5CCCCC5)ccc4n3)CC2)cc1
21. Nc1c(C(=O)Nc2ccc(Cl)cc2)sc2nc3c(cc12)N1CCC3CC1
22. Cc1ccccc1-c1nn2c(=O)cc(CN3CCN(C(=O)COc4ccccc4Cl)CC3)nc2s1
23. COc1ccc(-c2ccc3c(c2)CN(C(=O)C(C)(C)C)Cc2cnnn2-3)cc1
24. Cc1cc(-n2c(/C=C/c3cccs3)nc3ccccc3c2=O)ccc1Br
Screen / compound no.	19	20	21	22	23	24
ClpP mod	-1.9%	?	4.1%	-3.2%	4.1%	0.9%
gsp antagonist	nt	nt	nt	nt	nt	nt
TRPML1 blocker	3.7	-4.2	19.8	-2.7	23.8	-20.2

25. Cc1ccc(NC(=O)Cn2cc(C(=O)c3ccccc3)c3ccccc32)c(C)c1
26. Cc1ccc(NC(=O)N(Cc2ccc3c(c2)OCO3)C2CCN(Cc3ccccc3)CC2)cc1Cl
27. CCC12CN3CC(CC)(CN(C1)C3c1c(C)[nH]c(=O)[nH]c1=O)C2=O (centres undefined)
28. COc1ccc(-n2nnnc2C(CCc2ccccc2)N2CCC(n3c(=O)[nH]c4ccccc43)CC2)cc1 (centres undefined)
29. O=C(Nc1ccc2c(c1)OCCO2)c1cccn(Cc2cccc(F)c2)c1=O
30. CCOc1ccc(CN(CCc2ccc3c(c2)OCO3)Cc2ccc(C)cc2)cc1
Screen / compound no.	25	26	27	28	29	30
ClpP mod	-8.4%	-1.1%	-0.7%	-0.5%	-0.6%	-0.5%
gsp antagonist	nt	nt	nt	nt	nt	nt
TRPML1 blocker	-20.5	-12.5	11.4	12.4	-14.5	-8.2

Reformatted with values under each structure: entries from further up.
Results follow in this order: ClpP mod	gsp antagonist	TRPML1 blocker
18: COc1cccc(-n2c(/C=C/c3cccc(C)c3)nc3ccccc3c2=O)c1
 : -5.9%	nt	-20.9
19: NC(Cc1ccc(Cl)cc1)c1csc(Nc2cnccn2)n1 (centres undefined)
 : -1.9%	nt	3.7
20: CC(=O)c1ccc(N2CCN(c3ccc4cc(S(=O)(=O)N5CCCCC5)ccc4n3)CC2)cc1
 : ?	nt	-4.2
21: Nc1c(C(=O)Nc2ccc(Cl)cc2)sc2nc3c(cc12)N1CCC3CC1
 : 4.1%	nt	19.8
22: Cc1ccccc1-c1nn2c(=O)cc(CN3CCN(C(=O)COc4ccccc4Cl)CC3)nc2s1
 : -3.2%	nt	-2.7
23: COc1ccc(-c2ccc3c(c2)CN(C(=O)C(C)(C)C)Cc2cnnn2-3)cc1
 : 4.1%	nt	23.8
24: Cc1cc(-n2c(/C=C/c3cccs3)nc3ccccc3c2=O)ccc1Br
 : 0.9%	nt	-20.2
25: Cc1ccc(NC(=O)Cn2cc(C(=O)c3ccccc3)c3ccccc32)c(C)c1
 : -8.4%	nt	-20.5
26: Cc1ccc(NC(=O)N(Cc2ccc3c(c2)OCO3)C2CCN(Cc3ccccc3)CC2)cc1Cl
 : -1.1%	nt	-12.5
27: CCC12CN3CC(CC)(CN(C1)C3c1c(C)[nH]c(=O)[nH]c1=O)C2=O (centres undefined)
 : -0.7%	nt	11.4

Later entries
31. O=c1c2ccccc2nc(/C=C\c2ccccc2F)n1-c1ccc(O)cc1
32. Cc1ccc(-c2nnc(Nc3ccc(Br)cc3)c3ccccc23)cc1S(=O)(=O)NCc1nc2ccccc2[nH]1
33. O=C(Nc1ccc(Br)cc1)c1ccc(Cl)c(S(=O)(=O)N2CCCCCC2)c1
34. CCCCC(=O)Nc1c(C(=O)N2CCN(c3ccccc3F)CC2)oc2ccccc12
35. C=Cc1ccc(Cn2c(C)c(CNCCc3cc(OC)ccc3OC)c(C(=O)O)c2C)cc1
36. CCOC(=O)c1ccc(NC(=O)c2cccn(Cc3ccccc3F)c2=O)cc1
Screen / compound no.	31	32	33	34	35	36
ClpP mod	1.7%	?	37.0%	1.26µM*	1.5%	57.2%
gsp antagonist	nt	nt	nt	nt	nt	nt
TRPML1 blocker	-14.2	-4.4	29.4	-5.6	19.8	-11.8

37. CCOC(=O)c1ccc(NC(=O)c2sc3nc4c(cc3c2N)N2CCC4CC2)cc1
38. CCCCc1nc2ccccc2c(=O)n1-c1cccc(OC)c1
39. CCOc1ccccc1CN(CCc1ccc2c(c1)OCO2)Cc1ccc(CC)cc1
40. O=C1NCN(c2ccccc2)C12CCN(C(c1ccccc1)c1nnnn1-c1ccc3c(c1)OCCO3)CC2 (centres undefined)
41. Cc1ccc(-c2nc(CN3C(=O)CN=C(c4ccccc4)c4cc(Cl)ccc43)c(C)o2)cc1
42. COc1ccc(-c2nn3c(=O)cc(CN4CCN(C(=O)COc5ccc(F)cc5)CC4)nc3s2)cc1
Screen / compound no.	37	38	39	40	41	42
ClpP mod	-19.7%	-1.3%	0.3%	-2.6%	1.4%	3.9%
gsp antagonist	nt	nt	nt	nt	nt	nt
TRPML1 blocker	43.6	-11.3	-13.1	-15.1	63.3	31.4

43. CCOc1ccc(CN2C(=O)c3ccccc3Sc3ccc(C(=O)N4CCC5(CC4)OCCO5)cc32)cc1
44. CCN(c1ccccc1)S(=O)(=O)c1ccc(NC(=O)c2cc(=O)c3ccccc3o2)cc1
45. O=C(CN1C(=O)CN=C(c2ccccc2)c2ccccc21)Nc1cccc(C(F)(F)F)c1
46. O=c1[nH]c2ccccc2c(=O)n1-c1ccc(Cl)c(Cl)c1
47. Cc1oc(-c2ccc(Cl)cc2)nc1CN1C(=O)CN=C(c2ccccc2)c2cc(Cl)ccc21
48. CCN(CC)C(=O)c1ccc(NC(=O)Cn2nc(-c3ccc(C)cc3)c3ccccc3c2=O)cc1
Screen / compound no.	43	44	45	46	47	48
ClpP mod	-0.4%	59.8%	1.5%	-26.2%	-1.9%	-1.1%
gsp antagonist	nt	nt	nt	nt	nt	nt
TRPML1 blocker	1.3	-7.9	-7.4	-1.6	68.7	10.8

49. Cc1ccc(-n2c(/C=C/c3cccc(C(F)(F)F)c3)nc3ccccc3c2=O)cc1
50. CCOc1ccc(CN(CCc2ccc3c(c2)OCO3)Cc2cccc(Br)c2)cc1
51. Cc1ccc(-n2nc3c(N4CCC(C(=O)NCCc5ccccc5)CC4)nnc(C)c3c2C)cc1
52. COc1ccc(OC)c(NC(=O)Cn2cc(C(=O)c3ccccc3)c3ccccc32)c1
53. Cc1cccc(C)c1OCC(=O)Nc1ccc(Cl)cc1C(=O)c1ccccc1
54. O=C(COc1ccccc1[N+](=O)[O-])N1CCN(CCc2ccccn2)CC1
Screen / compound no.	49	50	51	52	53	54
ClpP mod	-10.5%	-0.6%	?	-16.8%	0.6%	-3.4%
gsp antagonist	nt	nt	nt	nt	nt	nt
TRPML1 blocker	-5.0	-4.1	39.8	12.6	-7.4	-9.0

55. O=C1CN=C(c2ccccc2)c2cc(Cl)ccc2N1Cc1ccc(Cl)cc1
56. Cc1ccc(-c2nc(CN3C(=O)CN=C(c4ccccc4)c4ccccc43)c(C)o2)cc1
57. Cc1ccc(OCC(=O)Nc2ccc(Cl)cc2C(=O)c2ccccc2)cc1C
58. Cc1cccc(-n2c(/C=C\c3cccc(Br)c3)nc3ccccc3c2=O)c1
59. Cc1ccc(Cn2cccc(C(=O)Nc3ccc4c(c3)OCO4)c2=O)cc1
60. O=C(c1ccc2c(c1)N(Cc1ccc(F)cc1Cl)C(=O)c1ccccc1S2)N1CCC2(CC1)OCCO2
Screen / compound no.	55	56	57	58	59	60
ClpP mod	-2.9%	0.2%	-1.4%	-2.1%	0.7%	0.1%
gsp antagonist	nt	nt	nt	nt	nt	nt
TRPML1 blocker	8.3	15.6	-6.3	-22.3	-18.2	2.4

61. Cc1cccc(C)c1-n1nnnc1C(c1cccs1)N1CCC(n2c(=O)[nH]c3ccccc32)CC1 (centres undefined)
62. O=c1[nH]c2ccccc2n1C1CCN(C(c2cccs2)c2nnnn2Cc2ccccc2)CC1 (centres undefined)
63. Cc1cc(C)cc(-n2c(=O)[nH]c3ccccc3c2=O)c1
64. Cc1ccc(CNC(=O)c2ccc(CSc3nc4ccncc4n3Cc3ccc(C)cc3)cc2)cc1
65. Nc1c(C(=O)Nc2ccc(Br)cc2F)sc2nc3c(cc12)N1CCC3CC1
66. COc1ccc(NC(=O)CN2C(=O)C(C)N=C(c3ccccc3)c3ccccc32)cc1OC (centres undefined)
Screen / compound no.	61	62	63	64	65	66
ClpP mod	0.8%	-2.3%	-23.8%	?	-13.0%	1.3%
gsp antagonist	nt	nt	nt	nt	nt	nt
TRPML1 blocker	-15.3	11.1	5.2	40.7	3.0	-16.7

67. COc1ccc(-n2c(/C=C/c3cccc(F)c3)nc3ccccc3c2=O)cc1Cl
68. Cc1ccccc1-n1c(/C=C/c2ccc(O)cc2)nc2ccccc2c1=O
69. COc1ccc(-c2cc(C(=O)N3CCN(c4ccccc4OC)CC3)c3cc(C(C)C)ccc3n2)cc1
70. COc1ccc(C(c2nnnn2-c2ccc(OC)cc2)N2CCC(n3c(=O)[nH]c4ccccc43)CC2)cc1 (centres undefined)
71. COc1ccccc1NC(=O)c1oc2ccccc2c1NC(=O)COc1cccc(C)c1
72. COc1ccc(-c2nc3ccccc3o2)cc1NC(=O)Cc1ccc(Cl)cc1
Screen / compound no.	67	68	69	70	71	72
ClpP mod	-0.8%	-4.0%	?	0.4%	17.6%	?
gsp antagonist	nt	nt	nt	nt	nt	nt
TRPML1 blocker	-16.3	-1.7	-0.5	-5.5	1.8	-0.2
